High-throughput results (PubChem BioAssay)
MenB inh: blocks the Mycobacterium tuberculosis MenB enzyme. inhibition, %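 (about 12 µg/mL by stock and volumes)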. 100,000 tested, 0.43% active. P9WNP5. AID 540299. MenB enzyme assay, absorbance read-out; some hits fall short of the stated cut;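 active means mean of two replicates above 30%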;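 further: 0% = no compound and 100% = wells with inactive enzyme; the first replicate is given; strong numbers were not always called active; inactives centre near -10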
Target sequence (P9WNP5 whole entry, looked up): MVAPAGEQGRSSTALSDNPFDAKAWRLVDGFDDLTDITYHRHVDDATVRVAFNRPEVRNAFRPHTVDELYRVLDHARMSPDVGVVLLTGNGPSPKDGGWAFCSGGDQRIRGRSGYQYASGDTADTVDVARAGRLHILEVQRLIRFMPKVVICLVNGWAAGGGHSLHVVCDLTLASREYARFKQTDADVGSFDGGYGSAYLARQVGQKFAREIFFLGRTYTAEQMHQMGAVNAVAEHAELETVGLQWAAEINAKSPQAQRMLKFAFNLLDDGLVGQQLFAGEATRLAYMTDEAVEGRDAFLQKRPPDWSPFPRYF
MbtI inh: inhibitors of Mycobacterium tuberculosis siderophore enzyme MbtI; purified MbtI enzyme, fluorescence intensity read-out; inhibition, %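 (about 17 µg/mL by stock and volumes)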; P9WFX0; 100,000 tested, 0.89% active;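 active means above 50% in both replicates, above 80% if mildly self-fluorescent; inactive means the rest, strongly fluorescent compounds included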;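 further: 0% = mean of negative and 100% = mean of positive controls; one replicate is shown; some compounds called inactive have numbers as strong as hits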
Polio RdRp inh: inhibitors of poliovirus RNA polymerase binding and polymerization; AID 588519; % elongation, % (compound at 16.7 µg/mL); 150,000 tested, 0.66% active; poliovirus polymerase elongation, fluorescence polarization; active compounds read low; P03300; in the data active means % elongation below about 90%; further: some results filed as inactive read as strong as hits
Target sequence (P03300 1749-2209 limits assumed): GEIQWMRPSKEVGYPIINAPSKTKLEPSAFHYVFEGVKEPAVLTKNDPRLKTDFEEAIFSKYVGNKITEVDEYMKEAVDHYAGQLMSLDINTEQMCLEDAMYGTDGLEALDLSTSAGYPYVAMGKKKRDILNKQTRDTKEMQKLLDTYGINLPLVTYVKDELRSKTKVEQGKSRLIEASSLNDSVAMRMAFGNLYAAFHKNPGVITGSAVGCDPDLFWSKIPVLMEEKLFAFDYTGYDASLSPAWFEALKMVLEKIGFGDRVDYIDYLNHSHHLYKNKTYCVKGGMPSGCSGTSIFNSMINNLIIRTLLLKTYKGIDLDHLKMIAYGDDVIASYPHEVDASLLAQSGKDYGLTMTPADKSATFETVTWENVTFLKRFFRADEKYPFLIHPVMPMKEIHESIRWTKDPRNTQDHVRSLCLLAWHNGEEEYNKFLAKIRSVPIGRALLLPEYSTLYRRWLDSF
Polio RdRp inh intensity: recorded beside Polio RdRp inh, whose call it bears; % elongation; measured here: total intensity read-out; formula for this scale not given here;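 total fluorescence in place of polarization; lower means less elongation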
An asterisk follows results filed as active; x = no result given; & = joins results of further samples.

No.	structure	MenB inh	MbtI inh	Polio RdRp inh	Polio RdRp inh intensity
1	O=C(NC1CCCCCC1)C1COc2ccccc2O1 (stereo not given)	17	-5	100	103
2	Cn1c(=O)c2[nH]c(SCC(=O)c3ccc(-c4ccccc4)cc3)nc2n(C)c1=O	5	-30	104	109
3	CCOC(=O)c1cc2c(C(F)(F)F)cc(-c3cccs3)nc2o1	4	-73	102	81
4	Cc1cccc(C)c1N=C1Oc2ccccc2N(C(=O)C(F)(F)F)C1(C)c1ccccn1 (stereo not given)	8	-7	98	101
5	O=C(Nc1ccc(Cl)cc1)C12CC3CC(CC(O)(C3)C1)C2	18	2	101	104
6	O=C(CN1N=C(c2ccccc2)CCC1=O)NCCC1=CCCCC1	-21	-13	103	102
7	C/C(=C/C(=O)C(F)(F)F)N1CCN(Cc2ccccc2)CC1	-4	6	111	117
8	CN1CC(=Nc2nonc2N)N(C)C1=O	-2	7	100	102
9	Cc1ccc(C)c(N2CCN(C(=O)C34CC5CC(C3)CC(n3nnc(C)n3)(C5)C4)CC2)c1	-19	5	102	99
10	COC(=O)C1=C(C)N(c2ccc(OC)cc2)C(=O)/C1=C\c1ccccc1O	-57	7	101	102
11	O=C(CCSc1nc2ccccc2o1)Nc1ccc(Br)cc1	-21	-8	101	105
12	CCOC(=O)c1[nH]c(CSc2nnnn2-c2ccccc2C)c(C(=O)OCC)c1C	-28	-1	132	152
13	Cc1cc(C)n(C(C)CC(=O)Nc2ccc(CN3CCC(C)CC3)cc2)n1 (stereo not given)	-7	-25	103	104
14	Cc1c(-c2ccccc2)c(=O)oc2cc(OCC#N)ccc12	-18	-61	101	104
15	CCN1CCCC1CNC(=O)CCCOc1cc(=O)n(C)c2ccccc12 (stereo not given)	-4	4	100	104
16	CC1CCCCN1CCNC(=O)c1nc(-c2cccnc2)no1 (stereo not given)	7	-20	102	104
17	CN(c1ccccc1)S(=O)(=O)c1ccc(C(=O)O)cc1	-12	3	100	101
18	O=C1C[C@H](NC(=O)OCc2ccccc2)CO1	-17	x	99	103
19	Cc1ccc(C)c(OCCn2nnc3ccccc32)c1	-15	-9	102	98
20	COc1cc(/C(N)=N/O)cc(OC)c1OC	29	2	97	101
21	c1ccc(CN2CCN(Cc3ccncc3)CC2)cc1	-8	x	101	99
22	N#Cc1c2c(c(Cl)n3c1nc1ccccc13)CCC2	-3	-3	101	101
23	O=C(CSc1nnc(-c2ccncc2)n1Cc1ccco1)OC1CCCCC1	18	-8	102	103
24	NC(=O)C1(N2CCCCC2)CCN(c2ccc3nnc(-c4ccccc4)n3n2)CC1	10	-4	99	100
25	c1ccc(Cn2ncc3c(Nc4ccc5ccccc5c4)ncnc32)cc1	-36	125	101	103
26	Cc1ccc(CCNC(=O)NC(C)(C)C)cc1	6	x	98	105
27	CN(CC(=O)Nc1ccc(F)cc1)C(=O)c1ccc(-c2ccc(F)cc2)o1	3	27	103	99
28	c1ccc(CSc2nnc3n(CCOc4ccccc4)c4ccccc4n23)cc1	-38	-6	102	99
29	CCOc1ccc(C(N)=S)cc1OC	-17	7	98	99
30	CCOC(=O)c1c[nH]c(=S)n1C	-6	39	104	102
31	CCCn1c(=O)c2ccccc2n2c(Sc3nnnn3-c3ccccc3)nnc12	-23	15	104	104
32	OCCNC12CC3CC(CC(C3)C1)C2	8	x	108	106
33	O=C(Cn1c(=O)n2nc(-c3ccccc3)nc2c2ccccc21)c1ccc(Br)cc1	-2	-19	102	107
34	CN1C(C(=O)NCC2CCCO2)=CC(c2ccco2)=NS1(=O)=O (stereo not given)	-13	10	99	102
35	CCCN1CCN(C(=O)c2ccc(-n3c(-c4ccccc4)nc4cccnc43)cc2)CC1	-17	-6	97	117
36	C=CCN(CC=C)Cc1c(C)[nH]c2ccccc2c1=O	0	x	102	101
37	COC(=O)c1ccc(OC(=O)COC(=O)CN2C(=O)c3ccccc3C2=O)cc1	-4	x	92	92
38	O=C(CCCCl)Nc1nc(-c2cccs2)cs1	x	-6	103	107
39	COc1ccc2c(COC(=O)Cn3cnnn3)cc(=O)oc2c1	6	104	x	x
40	CCOC(=O)NC(=S)Nc1ccc(OC)cc1	-7	-5	100	99
41	CCOC(=O)Cc1csc(-c2ncc(C(F)(F)F)cc2Cl)n1	-13	-133	100	117
42	CC1=NN(c2ccc(S(N)(=O)=O)cc2)C(=O)/C1=C\c1ccco1	-9	5	105	107
43	CC(NC(=O)CSc1ccccc1)c1ccc(S(N)(=O)=O)cc1 (stereo not given)	-12	-16	107	108
44	CCSC1=C(C#N)C(c2ccc(Cl)cc2)C(C(=O)OC(C)(C)C)=C(C)N1 (stereo not given)	-28	x	105	110
45	c1coc(C(CNc2ncnc3sc4c(c23)CCC4)N2CCCCC2)c1 (stereo not given)	11	4	107	100
46	O=C(Cn1cnc2ccccc21)c1ccc(Cl)cc1	-18	-17	103	108
47	O=C(COC(=O)C1CC1)NCc1ccc(Cl)cc1	x	-7	102	104
48	COC(=O)c1cc(-c2cccnc2)nc2ccccc12	8	57	103	107
49	CCCCNC(=O)Cn1nc(-c2ccccc2)ccc1=O	-26	38	101	103
50	CN(C1=CC2=CC(=C(C#N)C#N)CCC2CC1)C1CCCCC1 (stereo not given)	-76	4	44	239

Next compounds
No.	structure	MenB inh	MbtI inh	Polio RdRp inh	Polio RdRp inh intensity
51	CC1CSC(N(C(=O)c2cnccn2)c2ccc(Cl)cc2)=N1 (stereo not given)	5	4	95	102
52	CCCC(c1nnnn1CS(=O)(=O)c1ccc(C)cc1)N1CCC(C(N)=O)CC1 (stereo not given)	-8	7	102	103
53	O=C(O)CSC1=CC(=O)N(c2cccc(Cl)c2)C1=O	22	x	98	100
54	NC(=O)CSc1ccccn1	-13	-6	104	103
55	O=C(OCc1ccccc1F)C1COc2ccccc2O1 (stereo not given)	-7	-6	104	104
56	O=c1c2ccccc2[nH]c(=S)n1CCO	-1	16	101	101
57	COc1ccc(C(=O)CSc2nc3ccccc3c(=O)n2-c2ccc(C)cc2)cc1	-12	x	108	110
58	O=c1c2ccccc2[nH]c(=S)n1-c1ccccc1	-21&-5	24&-7	105&102	101&103
59	Cc1cc(C)nc(SCc2ccccc2C(=O)N2CCN(Cc3ccc(C#N)cc3)CC2)n1	-15	-2	101	106
60	O=c1cc(C23CC4CC(CC(C4)C2)C3)[nH][nH]1	7	x	102	103
61	N#CSCC(=O)n1c2c(c3ccccc31)CCCC2	19	7	101	104
62	CCc1ccc2[nH]c(=O)c(CN(CCN(C)C)C(=O)Nc3ccccc3Cl)cc2c1	-13	-27	101	104
63	O=C(Nc1ccccc1)Nc1ccc(-n2ccc(C(F)(F)F)n2)cc1	14	-4	102	98
64	O=C(COC(=O)[C@@H]1CCCN1S(=O)(=O)c1ccc(Cl)cc1)NCc1ccc2c(c1)OCO2	1	5	102	102
65	COCc1cc(C)[nH]c(=O)c1C(=O)NC12CC3CC(CC(C3)C1)C2	-15	3	103	103
66	O=C1CSC(C23CC4CC(CC(C4)C2)C3)N1 (stereo not given)	13	2	102	97
67	CC(C)NC(=O)c1ccc(CN(Cc2ccccc2)C(=O)Nc2ccc(F)cc2)o1	-3	-13	99	103
68	CC(C)c1nnc(NC(=O)/C=C/c2ccccc2)s1	-18	3	104	102
69	CCN1CCN(CCNC(=O)c2ccc(CS(=O)c3ccc(Cl)cc3)o2)CC1 (stereo not given)	3	-14	102	104
70	Cc1cc(C(=O)CN2c3ccccc3CC2C)c(C)n1-c1c(C)n(C)n(-c2ccccc2)c1=O (stereo not given)	-46	-6	104	106
71	Cc1ccc(NCc2nnc(SCC(=O)N(Cc3ccccc3)C(C)(C)C)o2)c(C)c1	-30	-3	104	103
72	CCSc1nnc(SCC(=O)N2CC(=O)Nc3ccccc32)s1	-24	12	104	109
73	N#Cc1ccccc1NC(=S)NCc1ccccc1	-23	1	95	89
74	O=C1NC(=S)NC(=O)C1=C1C=C(c2ccccc2)N(CCN2CCOCC2)C2=C1CCCC2	-9	7	x	x
75	COc1cc2c(cc1NC(=S)Nc1ccc3c(c1)OCO3)oc1ccccc12	-31	-46	101	103
76	CSC1=NC2(CCN(C(=O)NCc3ccccc3)CC2)N=C1c1ccccc1	6	-7	101	101
77	O=C(CC(=O)c1ccc2c(c1)OCCO2)c1ccccc1	-71	5	98	100
78	CC(C)c1cc(C(=O)Nc2c(Cl)cccc2Cl)no1	-5	6	100	102
79	O=C(CSc1ccc(Cl)cc1)c1ccc[nH]1	13	21	106	97
80	CSc1nc2nc(C)c(CCC(=O)OCC(=O)Nc3ccc(F)cc3)c(C)n2n1	-16	-3	103	109
81	O=C(OCc1cc(=O)n2cc(Br)ccc2n1)C1CC(=O)N(CCc2ccccc2)C1 (stereo not given)	2	8	97	89
82	O=C(O)C12CC3CC(CC(C3)C1)C2	x	-16	103	109
83	N#C/C(=C(/O)CCN1C(=O)c2ccccc2C1=O)c1nc2ccccc2s1	-20	-3	112	110
84	Cc1cc(NC(=O)CCN2C(=O)/C(=C3\SC(=S)N(CCC(=O)Nc4cc(C)on4)C3=O)SC2=S)no1	-47	-2	101	102
85	CCCCNC(=O)c1cc(-c2ccc(F)cc2)[nH]c1C	12	-202	102	99
86	CC(C)(O)[C@H]1O[C@H]2CC[C@@]3(C)[C@@](O)(CC[C@H]4Cc5c([nH]c6ccccc56)[C@@]43C)C2=CC1=O	-7	-16	101&101	104&103
87	OC[C@H]1NC[C@@H](O)[C@@H](O)[C@@H]1O	x	-2	102	103
88	CCOc1cc(C(=O)Nc2ccc(OC)nc2)ccc1OCC(=O)N1CCCCC1	-8	-2	x	x
89	O=C(Nc1ccccc1)Nc1ccc(C(F)(F)F)cn1	-16	4	105	101
90	O=C(c1cc(C2CC2)nn1-c1ccccc1)N(Cc1ccco1)Cc1cccs1	-56	9	111	98
91	CC1CN(/C=C/C(=O)C(F)(F)F)CC(C)O1 (stereo not given)	0	20	99	102
92	Cc1ccc(NNC(=S)NCCCN2CCOCC2)c(C)c1	-36	28	108	106
93	CCCc1nn2c(=O)cc(COc3ccc(NS(=O)(=O)c4ccc(Cl)cc4)cc3)nc2s1	0	1	99	104
94	O=C1NC(=O)C(C(=S)Nc2ccccc2)C(=O)N1	-6	-4	x	x
95	CN(C)c1ccc(NC(=O)c2cccc(N3C(=O)c4cccnc4C3=O)c2)cc1	-4	0	101	104
96	O=C(COC(=O)Cc1ccccc1F)NC(c1ccccc1)c1ccccc1	x	-5	104	98
97	COc1cc(/C=N/N2C(=O)C(CC(=O)O)SC2=Nc2c(C)n(C)n(-c3ccccc3)c2=O)ccc1O (stereo not given)	-21	-2	103	107
98	N#CCOC(=O)c1cn(-c2ccccc2)nc1-c1ccccc1	-38	-8	103	110
99	COCCn1c(NN)nc2ccsc2c1=O	-7	-3	100	104
100	CCOC(=O)c1c[nH]c2ccc(OCC)cc2c1=O	1	6	103	104

Reformatted screen by screen: entries from further up.
98. N#CCOC(=O)c1cn(-c2ccccc2)nc1-c1ccccc1
99. COCCn1c(NN)nc2ccsc2c1=O

screen / no. | 98 | 99
MenB inh | -38 | -7
MbtI inh | -8 | -3
Polio RdRp inh | 103 | 100
Polio RdRp inh intensity | 110 | 104

The listing picks up, starting three compounds before the break.
No.	structure	MenB inh	MbtI inh	Polio RdRp inh	Polio RdRp inh intensity
98	N#CCOC(=O)c1cn(-c2ccccc2)nc1-c1ccccc1	-38	-8	103	110
99	COCCn1c(NN)nc2ccsc2c1=O	-7	-3	100	104
100	CCOC(=O)c1c[nH]c2ccc(OCC)cc2c1=O	1	6	103	104
101	COC(=O)C1(C(O)C(=O)c2ccc(C)cc2C)CCCCC1 (stereo not given)	-27	-6	103	101
102	N#Cc1c(-c2cccs2)cc(C(F)(F)F)[nH]c1=S	-2	x	115	194
103	O=C(Nc1ccccc1C(F)(F)F)c1cnc2ccccn2c1=O	0	13	102	103
104	CCOC(=O)CN1CCOCCN(CC(=O)OCC)CCOCC1	-34	-19	106	102
105	COc1ccc(CCn2c(C)cc(C(=O)CN3CCOCC3)c2C)cc1	-5	-9	103	109

Look-ups from the entries so far:
For Polio RdRp inh, cpd 15 is listed with 100
For Polio RdRp inh intensity, cpd 21 is listed with 99
For MenB inh, cpd 94 is listed with -6
